Sfp PPTase inh = qHTS Assay for Inhibitors of Bacillus subtilis Sfp phosphopantetheinyl transferase (PPTase) | 4'-phosphopantetheinyl transferase ffp (Bacillus subtilis), Q9F4F7 | AID 1490, 2009 | Potency, µM, for inactives: max response, negative = inhibition, usual class: inhibitors | Biochemical Sfp PPTase activity, qHTS | 310,000 compounds, 3.5% hits; active = well fitted inhibition curve with a large enough effect; inconclusive = small, poorly fitted or top-dose-only effect, or another doubt; inactive = no such curve, though single readings can be large or run the other way;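 also: the enzyme is Sfp with the accession as filed and its product quenches rhodamine fluorescence; potency is read from the fitted curve at half-maximal effect; 0% = enzyme reaction without inhibitor and -100% = no enzyme wells; top concentration of the series not given in the record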
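After 15 min at room temperature with compound, 15 nM Sfp received 5 uM rhodamine-CoA plus 12.5 uM BHQ-2-ybbR (50 mM Hepes pH 7.6, 10 mM MgCl2). Rate came from the fluorescence difference over 30 min, ex 525/em 598 nm.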
gsp antag = qHTS for Antagonists of gsp, the Etiologic Mutation Responsible for Fibrous Dysplasia/McCune-Albright Syndrome: qHTS. gsp-mutant cells, cAMP HTRF, 30 min; control for the full effect not named in the record. Potency, µM (titrated, usually from 76.9 µM), for inactives: at the highest dose activity change, negative = inhibition, actives largely listed as inhibitors. 340,000 compounds, 0.4% hits. AID 624288, 2012; active = falling curve of any shape with a large fitted effect; inconclusive = falling curve, mostly with a smaller effect; inactive = flat or rising curve; cell line not stated here;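 also: intracellular cAMP measured with PDE inhibitor Ro 20-1724 present during compound exposure; potency is read from the fitted curve at half-maximal effect; % is scaled to controls: 0 for no effect and ±100 for the full control effect; nearly all actives have a fitted effect of over 65% in size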
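Cells, 2000/well, grown 16–24 h in DMEM 10% FBS with 0.5 mg/ml G418, then compounds plus […] (300 uM addition stock), 30 min at 37C. cAMP read by HTRF (cAMP-d2 and anti-cAMP antibody-K in lysis buffer) after 30 min RT.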
Menin-MLL FL inh = qHTS Assay for Inhibitors Targeting the Menin-MLL Interaction in MLL Related Leukemias: Competition With Fluorescein Labeled MLL-derived Peptide; Fluorescence polarization, fluorescein-MLL peptide displacement from menin; FP activity change, % at 61.4 µM; 290,000 tested, under 10 active; inconclusive = falling polarisation curve, or a change in total fluorescence; inactive = total fluorescence flat and polarisation flat or rising; no compound was filed as active; the % refers to the polarisation; negative = inhibition;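 also: % of control where 0% means no effect; inhibitors lower the polarisation; unlabelled MLL peptide was the positive control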
gsp ag = qHTS for Agonist of gsp, the Etiologic Mutation Responsible for Fibrous Dysplasia/McCune-Albright Syndrome: qHTS | Potency, µM (highest dose often 76.9 µM), for inactives: at the highest dose activation (cAMP increase), usual class: activators | AID 624287, 2012 | 340,000 compounds, 0.13% hits | gsp mutant cells, cAMP HTRF, 30 min; control for the full effect not named in the record; active = well fitted activation curve with a large enough effect; inconclusive = small, poorly fitted or top-dose-only effect, or another doubt; inactive = no such curve, though single readings can be large or run the other way; cell line not stated here;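 also: phosphodiesterase inhibitor Ro 20-1724 added with compounds to block cAMP breakdown; potency is read from the fitted curve at half-maximal effect; nearly all actives have a fitted effect of over 60% in size; about a fifth of the inactives were tested at one dose only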
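Cells stably selected in G418 were plated at 2000/well, grown 16-24 hr, then given compounds in DMSO with the PDE inhibitor […] (300 uM solution added) for 30 min at 37C; cAMP was read by HTRF.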
TRPML1 inh = qHTS for Inhibitors of the Human Mucolipin Transient Receptor Potential 1 (TRPML1); Mucolipin-1 (Homo sapiens), Q9GZU1; TRPML1-inducible cells, Ca2+ dye fluorescence, FDSS; active compounds read low; inhibition of EC80 agonist-evoked calcium signal; activity change, negative = inhibition, % (test concentration not listed); 390,000 compounds, 0.02% hits; AID 624415, 2012; in the data active means activity change below about -50%; inconclusive means about -30% to -50%; inactive means above about -30%;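 also: stimulus is agonist 54-4 at its EC80 concentration; % is scaled to controls: 0 for no effect and ±100 for the full control effect; compound concentration not given in the record; the text of the record puts the active cut at -80%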
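Calcium fluorescence in TRPML1-DL cells induced overnight with Tet: a 110 s read after compound pin addition, then a 110 s antagonist read after challenge with 54-4 at 4 uM final (EC80).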
TRPV1 potentiator = HTS Assay for Compounds that Act as Potentiators of the Vanilloid Receptor 1 | Transient receptor potential cation channel subfamily V member 1 (Homo sapiens), Q8NER1 | TRPV1-expressing cells, Fluo-8 calcium influx, capsaicin EC20 potentiation; host cell line not named in the record; control for the full effect not named in the record | potentiation, % at 8.33 µM | 320,000 compounds, 0.02% hits | AID 540277, 2011; active means potentiation above 80%; inconclusive means 30% to 80%; inactive means below 30%; also: 0% is about no effect
Target sequence (Q8NER1 whole entry, looked up): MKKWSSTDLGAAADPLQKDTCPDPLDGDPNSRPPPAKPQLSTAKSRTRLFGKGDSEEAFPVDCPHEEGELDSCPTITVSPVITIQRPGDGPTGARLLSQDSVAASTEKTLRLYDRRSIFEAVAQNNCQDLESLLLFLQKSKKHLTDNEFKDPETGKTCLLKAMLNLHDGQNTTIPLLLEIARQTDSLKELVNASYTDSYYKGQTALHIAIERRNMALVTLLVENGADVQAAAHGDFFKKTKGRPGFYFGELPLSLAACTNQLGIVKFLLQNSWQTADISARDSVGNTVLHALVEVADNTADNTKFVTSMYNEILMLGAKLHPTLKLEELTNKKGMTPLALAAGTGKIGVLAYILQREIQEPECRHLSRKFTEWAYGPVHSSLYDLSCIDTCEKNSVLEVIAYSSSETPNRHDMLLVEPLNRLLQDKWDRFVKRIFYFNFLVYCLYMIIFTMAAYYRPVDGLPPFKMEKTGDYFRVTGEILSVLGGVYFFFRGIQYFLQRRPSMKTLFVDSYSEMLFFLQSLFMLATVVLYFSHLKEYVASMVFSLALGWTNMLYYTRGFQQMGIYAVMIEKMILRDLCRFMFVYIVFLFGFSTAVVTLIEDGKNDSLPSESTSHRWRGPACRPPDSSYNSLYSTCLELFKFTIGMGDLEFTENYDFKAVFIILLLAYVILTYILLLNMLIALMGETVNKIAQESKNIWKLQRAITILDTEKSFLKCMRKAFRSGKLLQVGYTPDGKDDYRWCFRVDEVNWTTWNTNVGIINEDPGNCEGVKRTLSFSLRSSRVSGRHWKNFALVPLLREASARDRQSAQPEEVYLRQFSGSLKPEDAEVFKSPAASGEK
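Fluo-8 calcium influx in TRPV1-expressing cells, kinetic read (ex 480/em 520 nm). Compound added and read 3 min for agonist activity, followed by capsaicin at EC20 final and 2 min further read for enhancement.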
ClpP mod = qHTS Assay for Activators of ClpP. ATP-dependent Clp protease proteolytic subunit (Bacillus subtilis (strain 168)), P80244. purified B. subtilis ClpP, FRET peptide cleavage, 20 min. Potency, µM (titrated, usually from 57.5 µM), without a hit: top-dose activity change, negative = active. 340,000 compounds, 1.9% hits. AID 651965, 2013; active = well fitted falling curve with a large enough effect; inconclusive = small, poorly fitted or top-dose-only effect; inactive = no such curve, though single readings can be large or run the other way; also: potency is read from the fitted curve at half-maximal effect; the source files actives as falling curves though it sought activators and does not explain the sign; nearly all actives have a fitted effect of over 65% in size; many hits overshoot -100%
Target sequence (P80244 whole entry, looked up): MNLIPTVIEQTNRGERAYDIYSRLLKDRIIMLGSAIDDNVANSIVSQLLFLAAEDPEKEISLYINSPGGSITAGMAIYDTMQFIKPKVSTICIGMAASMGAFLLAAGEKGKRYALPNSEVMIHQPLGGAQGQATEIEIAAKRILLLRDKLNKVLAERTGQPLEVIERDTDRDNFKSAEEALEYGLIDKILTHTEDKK
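ClpP 10 microg/mL final, pH 8 Tris/KCl buffer with BSA, glycerol, Tween-20; compound pinned in; FRET-FV substrate; RT 20 min; Ex320/Em430; ΔFRET vs ADEP 5.8 microM, DMSO, no enzyme.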
Active calls of the source: *; ? = inconclusive; . = not tested or not shown; & = joins results of further samples; [ ] = remark or other dose.

Below each SMILES – TRPML1 inh, TRPV1 potentiator, gsp antag, Sfp PPTase inh, ClpP mod, gsp ag, Menin-MLL FL inh
Cc1ccc2c(CN3CCOCC3)cc(=O)oc2c1C
    ., -23, -9%, 1%, -4.4%, -1%, 2.3
CCn1c(NCc2ccccn2)nc2c1c(=O)n(C)c(=O)n2C
    -5, 21, 12%, -4%, -2.4%, 46%, 1.0
COc1ccc(C(=O)CSc2n[nH]c(-c3ccncc3)n2)cc1[N+](=O)[O-]
    -13, 10, 16%, 9%, -2.3%, 4%, 4.0
CN(c1ccccc1)c1nc(N)c([N+](=O)[O-])c(N2CCCCC2)n1
    7, -17, 0%, 14%, 0.8%, 10%, 2.6
Cc1ccccc1C(=O)c1cccn1CC(=O)NCc1cccc(Cl)c1
    0&-16, -22, -13%, 7%, -0.8%&0.2%, -2%, 0.0
CCOc1ccc(S(=O)(=O)Nc2ccc3c(c2)OCO3)c2cccnc12
    3, 3, -23%, 56µM*, -6.6%, 17%, 2.2
COc1ccc(-c2cc(C(F)F)n3ncc(C(=O)N4CCc5ccccc5C4)c3n2)cc1
    40, -2, -11%, 14%, ., 18%, -11
CCCc1[nH]nc2c1C(c1ccc(OC)c(CSC3=NCCS3)c1)C(C#N)=C(N)O2 (stereo not given)
    -7, -24, 16%, 79µM*, -0.8%, -6%, 4.2
O=[N+]([O-])c1ccc(-c2nc(Nc3cccc(O)c3)c3ccccc3n2)cc1
    12, -5, 28µM*, 4%, -1.4%, ?, -5.8
Cc1ccccc1C(=O)NNC(=O)C(C)N1C(=O)c2ccccc2C1=O (stereo not given)
    -1, 15, 3%, ?, 0.8%, -23%, 1.9
Cn1c(=O)c2cc(S(=O)(=O)NC(Cc3ccccc3)C(=O)NCc3ccco3)ccc2n(C)c1=O (stereo not given)
    12, -17, 1%, 0%, -4.2%, 8%, 3.9
O=C(COc1ccc2ccc(=O)oc2c1)N1CC[C@@]2(O)CCCC[C@H]2C1
    ., -3, -4%, 14%, 5.4%, ., -6.9
CC(C)CCN(C)C1CCN(C(=O)Nc2c(F)cccc2F)CC1
    4, ., 12%, 7%, 1.7%, ?, 1.2
CC(=O)N1CCN(S(=O)(=O)c2ccc(C)cc2)C1C(C)C (stereo not given)
    0, 1, -3%, 16%, -1.3%, 1%, -0.6
OC(CNCCNc1ncccc1C(F)(F)F)Cn1ccc2ccccc21 (stereo not given)
    -5, -4, -1%, -1%, -1.4%, 5%, 1.2
CC1CCCC=CC2CC(OC(=O)CN(C)C)CC2C(O)C=CC(=O)O1 (stereo not given)
    -7, ., -1%, ., 0.4%, -44%[inhibitor], .
CC(=O)[C@@]1(O)CCC2C3C=CC4=CC(=O)CC[C@]4(C)C3CC[C@@]21C (stereo not given in full)
    1, -8, -8%, ., 1.3%, -5%, .
c1ccc(C2=Nn3c(nnc3-c3cccs3)SC2)cc1
    13, -4, -12%, 27%, ., -8%[15.4 µM], 1.1
O=C(NC1CCCC1)C1c2ccccc2C(=O)N1C1CCCCC1 (stereo not given)
    -6, 5, -4%, 14%, 0.2%, ?, -0.3
O=C(C1=C(O)C(=O)N(Cc2ccccc2)C1c1ccncc1)c1ccco1 (stereo not given)
    3, 2, 21%, 3%, 2.4%, ?, 3.4
COC(=O)C/C=C/[C@@H](C)[C@@H](/C=N/OCC[C@@H]1C=C[C@H](OC(C)=O)[C@@H](COC(C)=O)O1)NS(=O)(=O)c1ccc(C)cc1
    ., 23, ., 25%, ., ., -0.1
COc1ccc(NC(=O)CCS(=O)(=O)c2ccc(Br)s2)cc1
    18, 21, 1%, 13%, ., 5%[15.4 µM], -0.7
COc1ccc(CNC(=O)c2c(-c3c(F)cccc3Cl)noc2C)cc1
    -6, 2, 17%, 9%, -4.8%, -5%[15.4 µM], 6.9
CC(C)(C)NC(=O)c1cccc(NC(=O)c2ccco2)c1
    7, 11, -5%, 24%, -0.5%, -14%, 2.3
NC(=O)C1CCN(Cc2nc3cc(C(F)(F)F)ccc3c(=O)[nH]2)CC1
    -7, -23, -3%, -19%, -5.3%, 13%, -1.9
O=S(=O)(c1ccc(Br)s1)N1CCC(Cc2ccccc2)CC1
    5, 8, -4%, ?, -2.0%, -4%, 15
C/C(=N/NC(=O)c1ccoc1C)c1ccc(NC(=O)c2ccncc2)cc1
    -5, -17, 9%, -18%, 1.6%, -2%, 12
CCOc1ccc(OCC)c(NC(=O)CSc2nc3c(c(=O)n(C)c(=O)n3C)n2C)c1
    ., 7, ., 6%, ., ., 2.0
CCOc1ccc(NS(=O)(=O)c2ccc(C(=O)N(C)CC(=O)Nc3ccccc3Br)cc2)cc1
    -14, ., -19%, ., 0.6%, ?, .
Cc1nc(SCC(=O)N2c3ccccc3NC(=O)CC2C)c2c(C)c(C)sc2n1 (stereo not given)
    -13, 3, -7%, ., ?, -6%[15.4 µM], .
COc1ccc(N(CC(=O)NCc2ccc(C)cc2)S(=O)(=O)c2ccccc2[N+](=O)[O-])c(OC)c1
    -22, -17, -12%, 7%, ., -11%, 0.4
CC(C)NC(=O)C(Cc1ccccc1)N1C(=O)c2ccccc2C1=O (stereo not given)
    2, 2, 2%, 18%, -0.7%, -51%[inhibitor], 0.1
O=C(COC(=O)c1cnccn1)c1ccc2ccccc2c1
    11, -3, 3%, 15%, 18%, 6%, -1.0
Cc1ccccc1-n1c(C)nnc1SCC(=O)NC1CCCc2ccccc21 (stereo not given)
    -5, -15, -21%, 17%, -3.5%, 27%, 4.4
N#Cc1ccc(OCC(=O)Nc2nc(-c3ccccn3)cs2)cc1
    -5, ., ., ., -3.4%, -14%, .
N/C(=N\OC(=O)N1c2ccccc2Sc2ccccc21)c1ccc(Br)cc1
    -12, -3, -15%, 14%, -24%, -29%, 1.4
O=C(CCSc1ccccc1)Nc1ccc(S(=O)(=O)N2CCOCC2)cc1
    5, -19, -22%, -13%, 0.6%, -18%, 0.4
O=C1c2ccccc2C(=O)N1c1nc(-c2cccs2)cs1
    11, 13, 2%, 25µM*, -2.8%, 20%, 6.9
O=C(C1CCN(c2ccc(N3CCOCC3)nn2)CC1)N1CCc2ccccc2C1
    -3, 5, -11%, 19%, ?, 18%, 2.1
Cc1c(NS(=O)(=O)c2cc(C(=O)NCc3ccco3)cc(Cl)c2Cl)c(=O)n(-c2ccccc2)n1C
    16, -14, ?, ., ., -10%[15.4 µM], .
COc1ccc(-c2nc(CSCC(=O)NCCCN3CCCC3=O)c(C)o2)cc1
    3, -19, -9%, 5%, 3.4%, -27%, -2.0
Fc1cccc(NC(=S)Nc2cccc3ccccc23)c1
    1, -2, 5%, 14%, 3.5%, -1%, .
COc1ccc(S(=O)(=O)N(C)C[C@H]2OCCCC[C@H](C)Oc3ccc(NC(=O)Nc4ccc(F)cc4)cc3C(=O)N([C@H](C)CO)C[C@H]2C)cc1
    -1, ., ., ., -9.4%, ?, .
CN1CCN(c2cc3c(cc2F)c(=O)c(C(=O)O)cn3CCF)CC1
    -18, 3, 1%, 18%, -27%, -32%[inhibitor], 1.4
O=C(O)c1ccccc1C=NN=C1c2ccccc2-c2ccccc21
    11, ., -16%, ., -2.0%, -2%, .
CCOc1cc(C(=O)NC)cc(Br)c1OCc1ccccc1
    3, 17, ?, -3%, -0.8%, -1%[15.4 µM], 0.0
CCn1nc(C)c(CN2CCC(n3nccc3NC(=O)CCCc3ccccc3)CC2)c1C
    -17, -7, 1%, -6%, -3.7%, ?, .
Cc1ccc(CNC(=O)CSc2ccc(-c3ccccn3)nn2)cc1
    0, -24, 12%, 1%, ., 21%, 2.8
O=C1N(Cc2cccc(Cl)c2)C[C@@H]2C[C@@H](c3cccn3-c3cccnc3)N3CCC[C@@]123
    13, -6, -24%, -2%, ., ?, -9.6
NC(=O)COC(=O)/C=C/c1cccc(Br)c1
    1, -28, ., 2%, ., 7%[15.4 µM], 0.3
CN1CCN(C(=O)Cn2ncc3c([nH]c4ccccc43)c2=O)CC1
    -20, 2, -1%, 10%, 4.1%, -3%, .
COc1ccccc1-n1c(C)c2c(OC)cccc(=O)c2c1C
    12, 18, -20%, -16%, -0.4%, 6%, 21
CC(C)(C)c1cc(S(=O)(=O)CCc2ccncc2)cc(C(C)(C)C)c1F
    -5, -56, -16%, 25%, 0.3%, 10%[15.4 µM], -7.6
COC(=O)c1ccc(C2/C(=C(/O)c3ccc(OC)cc3)C(=O)C(=O)N2c2cc(C)on2)cc1 (stereo not given)
    3, 3, -29%, -7%, 1.3%, 17%, -0.8
COc1cc(-c2c(-c3cccc(C)c3)oc3ccccc23)cc(OC)c1OC
    -1, -10, -2%, -9%, 4.3%, ., -5.3
COc1ccc(-c2cc(C(F)(F)F)nc(SCC(=O)N(C)Cc3cnn(C)c3C)n2)cc1OC
    14, -4, 0%, 5%, ?, -5%[15.4 µM], -1.2
CCCCCn1c(NC2CCCCC2)nc2c1c(=O)[nH]c(=O)n2C
    28, -5, -13%, -23%, 1.5%, -1%, -0.8

Screens as filed in PubChem BioAssay.
